Bioassay records as filed in PubChem BioAssay.
Hsc70: Hsc70 inhibitors, probe displacement, primary screen, biochemical, fluorescence polarization (AID 568); Heat shock cognate 71 kDa protein (Homo sapiens); Hsc70 fluorescence polarization, probe displacement; higher % means a stronger effect; strong numbers were not always called active; one-dose displacement, % at 20 µM; IC50 in µM for titrated hits; 83,000 tested, under 10 active;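 active = displacement above 50% without optical interference and an IC50 on retest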;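 also: ATPase domain with a fluorescein-tagged ATP probe; 0% = vehicle and 100% = excess ADP; read after one hour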
MT1-MMP reporter: inhibitors of MT1-MMP promoter transcription, cell-based, luciferase reporter, luminescence (AID 618); MT1-MMP promoter luciferase reporter cells, luminescence; calls from a first round at 10 µM; hits with a dose series show EC50 in µM; 87,000 tested, 0.62% active;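 active = over half of the reporter light lost at 10 µM or EC50 under 50 µM; inactive = the rest and hits that failed the dose series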;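 also: actives suppress MT1-MMP promoter-driven transcription so potencies describe inhibitors; HT1080 fibrosarcoma cells; overnight exposure; toxic or luciferase-blocking compounds were not removed from the actives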
WNV NS2B-NS3 inh: inhibitors of WNV NS2B-NS3 protease, primary screen, biochemical, fluorogenic substrate | Genome polyprotein (West Nile virus), P06935 | fluorogenic substrate Ex360/Em465; active compounds read low | z-score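 (tested at a level between 10 and 100 µM)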 | 65,000 tested, 0.18% active | AID 577, 2007;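 active = z-score at -3 or under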;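 also: score is relative to mean and spread of the compound wells of a plate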
Target sequence (P06935 1371-1501 limits assumed): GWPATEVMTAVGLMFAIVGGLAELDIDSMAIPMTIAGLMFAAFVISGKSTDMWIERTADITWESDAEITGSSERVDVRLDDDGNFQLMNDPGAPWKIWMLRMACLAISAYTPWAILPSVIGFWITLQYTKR
Target sequence (P06935 1502-1679 limits assumed): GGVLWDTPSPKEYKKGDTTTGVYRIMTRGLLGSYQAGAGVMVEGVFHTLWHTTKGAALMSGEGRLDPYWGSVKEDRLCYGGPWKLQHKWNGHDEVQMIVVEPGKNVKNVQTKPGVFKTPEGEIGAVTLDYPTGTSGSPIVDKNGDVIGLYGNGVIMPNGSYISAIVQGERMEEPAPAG
* marks the source's active call; other numbers are inactive results; i = inactive; . = not tested or not shown; + = active, no number.

Compound,WNV NS2B-NS3 inh,MT1-MMP reporter,Hsc70
N#CC(c1ccc(Cl)cc1)c1ccc2c(C(F)(F)F)cc(C(F)(F)F)nc2n1 (centres undefined),.,i,3.6%
CCOC(=O)c1cc2c(C)nn(-c3ccccc3)c2s1,.,i,-4.6%
Cn1c(=O)n(CC(=O)NC2CCCCC2)c(=O)c2ccccc21,-0.69,i,-4.4%
Cc1ccc2c(c1)NC(=O)C(CC(=O)NCCCN1CCCCC1C)O2 (centres undefined),-0.37,i,-1.9%
Cn1c(N2CCN(C(=O)NC34CC5CC(CC(C5)C3)C4)CC2)nc2ccccc21,.,i,0.6%
CCCCc1ccc(NC(=O)CSCc2cc(=O)[nH][nH]2)cc1,.,i,1.6%
O=C(Nc1nc(-c2ccccc2)cs1)c1cccc(S(=O)(=O)N2CCN(Cc3ccccc3)CC2)c1,.,i,-8.0%
CC(=O)N1N=C(c2ccc(C)cc2)OC1c1ccc(C)cc1 (centres undefined),.,i,0.7%
COCCNc1cc(C)nc2c(-c3ccccc3OC)c(C)nn12,0.03,i,-4.8%
CCOC(=O)Nc1c(C(=O)OC)[nH]c2cc(OC)ccc12,-1.6,i,-1.2%
CCOc1ccc(NC(=O)CSc2nnc(Cn3cnc4ccccc43)n2C)cc1,.,i,-0.6%
CCCc1cc(=O)[nH]c(/N=C(/NC(=O)c2ccccc2)Nc2ccc3c(c2)OCCO3)n1,-1.4,i,1.3%
Cc1cccc(S(=O)(=O)c2c(N)n(Cc3ccco3)c3nc4ccccc4nc23)c1,0.74,i,0.3%
Cc1cc(OCCN2CCOCC2)nc2ccccc12,-0.61,i,-3.6%
Cc1ccc(CNC(=O)C2CCCN(S(=O)(=O)c3c(C)n[nH]c3C)C2)cc1 (centres undefined),.,i,1.5%
COc1cc(-c2nc3oc4ccccc4c(=O)c3c(=O)n2Cc2ccco2)cc(OC)c1OC,-1.6,i,-7.2%
c1csc(-c2nnc(-c3ccc(N4CCOCC4)cc3)o2)c1,0.29,i,0.5%
Cc1cc(C(=O)CSc2nnc(-c3ccc(F)cc3)o2)c(C)n1CC1COc2ccccc2O1 (centres undefined),.,i,-0.3%
COc1ccc(NC(=O)CSc2nnc(-c3ccccn3)n2N)cc1Cl,-0.38,i,3.3%
CCc1c(C)nc2ncnn2c1N1CCC(C(=O)NCc2ccc3c(c2)OCO3)CC1,0.3,i,-14%
O=C(CN1CCC(n2nnc3cc(F)ccc32)CC1)NCc1ccco1,-0.84,i,-2.8%
CCOCCn1c(SCc2ccc(C)cc2)nc2c1c(=O)[nH]c(=O)n2C,0.66,i,0.5%
CCN(CC)C(=O)COC(=O)c1cc(-c2ccc(OC)cc2)nc2ccccc12,.,i,1.6%
Cn1c(=O)c2c(nc(CN3CCOCC3)n2CCCO)n(C)c1=O,-1.1,i,0.9%
CC(=O)CSc1nnc(-c2ccc(S(=O)(=O)N3CCC(C)CC3)cc2)o1,.,i,4.3%
OCCN1CCOCCN(CCO)CCOCC1,0.04,i,0.2%
CCCN1CCN(CCCNC(=O)C2CCCN(c3nc4ccc(OCC)cc4s3)C2)CC1 (centres undefined),-0.12,i,3.9%
Cc1nn2c(C(F)(F)F)cc(-c3ccc(Cl)cc3)nc2c1C(=O)N1CCOCC1,0.65,i,2.5%
O=C(NC1CC1)c1cc(-c2ccccn2)nc2ccccc12,.,i,-2.7%
CCOC(=O)CN1c2ccccc2NC(=O)CC1C (centres undefined),0.28,i,4.2%
O=C1OCC2=C1C(c1ccc3c(c1)OCO3)Sc1ccccc1N2 (centres undefined),-0.1,i,-4.4%
CS(=O)(=O)N(Cc1ccccc1F)c1ccccc1,.,i,1.3%
CCN(CC)c1ccc(C=Nc2ccc(C#N)cc2)c(O)c1,-0.64,i,-14%
CCOC(=O)c1cc(NC(=O)c2ccoc2C)cc(C(=O)OCC)c1,-1.4,i,0.1%
CC(C)CC(c1nnnn1Cc1cccs1)N1CCN(c2nc3ccccc3s2)CC1 (centres undefined),.,i,-0.8%
C=CCn1c(SCc2c(F)c(F)c(F)c(F)c2F)nc(O)cc1=O,0.08,i,-4.1%
Cc1cccn2c(=O)c3cc(C(=O)NCCN4CCOCC4)n(Cc4ccccc4)c3nc12,-0.79,i,-6.3%
O=C(C1CCN(c2nnc(N3CCCC3=O)s2)CC1)N1CCN(Cc2ccc3c(c2)OCO3)CC1,-0.86,i,-7.1%
CC(C)c1ccc2oc(-c3ccc(N)cc3)nc2c1,0.82,1.7µM*,-0.1%
CCOC(=O)CSc1nnc(CNC(=O)c2ccco2)n1C,-1.1,i,-1.9%
CCC(=O)N1c2ccccc2C(N(C(C)=O)c2ccccc2)CC1C (centres undefined),.,i,-0.6%
Cc1cc(C)c(C#N)c(SCC(=O)N(C)C2CCCCC2)n1,-0.02,i,1.2%
CCOCCCn1cnc2c(c1=O)c1nc3ccccc3nc1n2-c1ccc(C)cc1,-0.09,i,-1.0%
CCN1CCCC1CNS(=O)(=O)c1ccc(C(=O)Nc2ccccc2)cc1 (centres undefined),-1.5,i,0.3%
COc1ccc(C2CC(=O)Nc3ccccc3S2(=O)=O)cc1OC (centres undefined),-1.2,i,-3.0%
O=C1CC(N2CCN(S(=O)(=O)c3cccc(C(F)(F)F)c3)CC2)C(=O)N1Cc1ccccc1 (centres undefined),0.85,i,7.6%
Cc1ccc(CCCOC(=O)C[N+]2(C)CCOCC2)cc1,.,i,3.0%
CCc1nc(C)ccc1OCC(=O)O,0.19,i,-3.5%
Cc1cc(S(=O)(=O)Nc2cccnc2)c(C)s1,-0.16,i,-2.8%
CCSc1nnc(NC(=O)c2cccc(OCc3c(C)noc3C)c2)s1,0.55,i,-2.6%
Cc1nn(C)c(C)c1S(=O)(=O)N1CCCC(C(=O)NC2CCCCCC2)C1 (centres undefined),-0.21,i,-2.3%
CC(C)(C)c1[nH]nc2c1C(c1ccccc1OC(=O)N1CCOCC1)C(C#N)=C(N)O2 (centres undefined),1.9,i,-1.5%
CCc1c(C)nc(N)n2c(SCC(=O)N3CCN(c4ccccc4)CC3)nnc12,0.17,i,-6.9%
Cc1oc(-c2ccccc2F)nc1CS(=O)(=O)CC(=O)NCCCc1ccccc1,-0.1,i,-2.7%
COc1cccc(C2C(C(=O)NCc3ccccc3)=C(C)Nc3ncnn32)c1 (centres undefined),-0.52,i,4.4%
COc1ccc(S(=O)(=O)NC2CC(C)(C)NC(C)(C)C2)c(C)c1C,-0.14,i,-2.5%
COc1ccccc1N1CCN(CC(O)COc2ccc(S(=O)(=O)N3CCOCC3)cc2)CC1 (centres undefined),-0.87,i,5.1%
CCC(Oc1ccccc1)C(=O)Nc1nc2c(s1)C(=O)CC(C)(C)C2 (centres undefined),.,i,2.1%
CC(=O)N1CCN(c2cccc(C)c2C)CC1,-1.1,i,-2.8%
CSc1cc(-c2ccccc2)n(Cc2ccccc2Cl)c(=O)c1C#N,.,+,5.0%

(next part)
Compound,WNV NS2B-NS3 inh,MT1-MMP reporter,Hsc70
CC(=O)c1cccc(NC(=O)Nc2cccs2)c1,0.3,i,-4.2%
COc1ccc(OC(C)C(=O)N2CCc3ccccc3C2)cc1 (centres undefined),2,i,2.4%
Cc1cc(NC(=O)Cn2cc(C(F)(F)F)cc(Cl)c2=O)no1,1.7,i,5.8%
COC(=O)C1=CN(C)C=C(C(=O)OC)C1c1ccccc1Cl,4.8,i,5.2%
COC(=O)c1ccc(OC(=O)c2ccc(OCc3c(C)noc3C)c(OC)c2)cc1,-1.4,i,-4.3%
CC(/C(O)=C(\C#N)c1nc2ccccc2n1C)N1C(=O)c2ccccc2C1=O (centres undefined),-0.33,i,0.9%
O=C(/C(=N\O)n1cncn1)c1ccc(Br)cc1Br,2.1,i,-5.7%
CCCCOC(=O)Nc1nc(C)c(C(=O)OCC)s1,.,i,0.4%
NC(=O)COC(=O)CCCc1nc2ccccc2s1,.,i,-0.5%
Cc1ccc(C)n1CCN1CCN(C(=O)c2ccco2)CC1,-0.43,i,6.8%
COc1ccc(NC(=O)C2CCN(S(=O)(=O)c3c(C)noc3C)CC2)cc1Cl,.,i,3.4%
CCc1ccc(C2CC(=O)NC(SCC(=O)OC(C)C)=C2C#N)cc1 (centres undefined),1.5,i,5.7%
CCOC(=O)N1CCN(C(=O)c2cc(C)no2)CC1,-0.21,i,7.1%
O=C1CC(N2CCN(c3ccccc3F)CC2)C(=O)N1c1ccc2c(c1)OCCO2 (centres undefined),1.1,i,-3.9%
CCOC(=O)c1ccc(N/C=C2/CCCC(C)C2=O)cc1 (centres undefined),.,i,-7.9%
CCCc1nc2ccccc2c(=O)n1-c1c(C)n(C)n(-c2ccccc2)c1=O,-0.51,i,-0.8%
O=C1c2ccccc2C(=O)N1CCSc1nnc(-c2ccco2)n1Cc1ccccc1,-0.07,i,-0.9%
Cc1cc(C)cc(-n2c3nc4ccccc4nc3c3c(=O)n(Cc4ccco4)cnc32)c1,-0.71,i,-3.2%
Cc1c(NC(=O)NCc2ccccc2)c(=O)n(-c2ccccc2)n1C,2.1,i,-4.1%
Cc1nc2ccc(C(=O)N3CCSCC3)cc2s1,-0.53,i,2.9%
Cc1cc(Cl)ccc1OCC(=O)N1CC(C)CC(C)C1 (centres undefined),-0.39,i,-2.3%
Cc1noc(C)c1S(=O)(=O)N1CCCC(C(=O)N2CCc3ccccc3C2)C1 (centres undefined),0.09,i,-1.5%
CCCCCC(=O)Nc1c(-c2ccc(OC)cc2)c(=O)c2ccccc2n1C,.,i,-1.3%
CN(C)c1ccc(Nc2nc(-c3cccnc3)cs2)cc1,0.88,i,-2.3%
c1cn(CC2(Cn3ccnc3)COC2)cn1,-0.62,i,1.7%
Cc1ccc2nc(Nc3ccccc3)c(/C=N/O)c(=O)n2c1,-0.27,i,3.8%
O=C(O)c1ccc(CSc2nnc(-c3ccco3)o2)cc1,0.63,i,-3.1%
Cc1nnc2c(NC(C)C)nc3ccccc3n12,0.0016,i,0.6%
CCOC(=O)C1[C@H]2C(=O)N(CCCOC)C[C@]23C=C[C@H]1O3 (some centres undefined),-0.08,i,-1.9%
C=C(Cl)COC(=O)C1C2C=CC(C2)C1C(=O)O (centres undefined),.,i,-0.3%
Clc1ccc(OCCCCSc2ncccn2)cc1,.,i,-3.1%
Cc1oc(-c2ccccc2F)nc1CS(=O)CC(=O)NCc1cccs1 (centres undefined),-0.75,i,-6.0%
CN(C)c1ccnc(SCc2ccccc2Cl)c1C#N,1.1,i,-0.7%
CC(C)Nc1nc(NC(C)C)nc(NS(=O)(=O)c2ccc(N)cc2)n1,.,i,2.1%
Cc1onc(-c2c(F)cccc2Cl)c1C(=O)NCc1cccs1,0.19,i,0.7%
CC(C)(C)n1nnnc1C(c1cccs1)N1CCN(Cc2ccc3c(c2)OCO3)CC1 (centres undefined),.,i,1.5%

Filtered by structure, the compounds so far containing a CF3 group
Compound,WNV NS2B-NS3 inh,MT1-MMP reporter,Hsc70
N#CC(c1ccc(Cl)cc1)c1ccc2c(C(F)(F)F)cc(C(F)(F)F)nc2n1 (centres undefined),.,i,3.6%
Cc1nn2c(C(F)(F)F)cc(-c3ccc(Cl)cc3)nc2c1C(=O)N1CCOCC1,0.65,i,2.5%
O=C1CC(N2CCN(S(=O)(=O)c3cccc(C(F)(F)F)c3)CC2)C(=O)N1Cc1ccccc1 (centres undefined),0.85,i,7.6%
Cc1cc(NC(=O)Cn2cc(C(F)(F)F)cc(Cl)c2=O)no1,1.7,i,5.8%

Following part.
Compound,WNV NS2B-NS3 inh,MT1-MMP reporter,Hsc70
Cc1nc2ccc3nc(NC(=O)c4ccc5c(c4)OCCO5)sc3c2s1,0.63,i,-52%
Cc1ccc(Cn2c(N3CCCCCC3)nc3c2c(=O)[nH]c(=O)n3C)cc1,0.09,i,-0.2%
COc1ccc2c(c1OC)C(=O)O[C@@H]2[C@H]1c2c(cc3c(c2OC)OCO3)CCN1C,-1,i,2.0%
Cc1ccc(N2CCN(CCc3nc4cc(NC(=O)c5ccco5)ccc4n3C)CC2)cc1,-0.07,i,-2.6%
Cc1cc(C(=O)CSc2nnc(Nc3ccccc3F)s2)c(C)n1CC1CCCO1 (centres undefined),-0.78,i,5.1%
O=C(CSc1nnc(-c2ccc(F)cc2)o1)N1CCN(C(=O)c2ccco2)CC1,-0.67,i,2.9%
CCOC(=O)c1ccc(OCC(=O)c2ccc(O)cc2O)cc1,-1.1,i,-7.5%
Cc1[nH]c2ccccc2c1C(=O)COC(=O)C1CCC(=O)N1 (centres undefined),-0.69,i,-1.1%
Cn1cnnc1Sc1nc2ccccc2nc1NS(=O)(=O)c1ccccc1,-1.1,i,7.0%
COC(=O)CCC(=O)c1oc2ccccc2c1NC(=O)CCCN1C(=O)c2ccccc2C1=O,-1.1,i,-5.0%
O=C(Cn1nnc2c(cnn2-c2ccc(F)cc2)c1=O)OC1CCCCC1,0.41,i,3.1%
